# Screening results from PubChem.
# Mtb hypoxia inh: PubChem AID 1159583; M. tuberculosis hypoxia-regulated fluorescent reporter, fluorescence; 300,000 tested, 0.1% active; fluorescence inhibition, % (no concentration beside the values);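 active = 35 to 45% if threefold the growth effect, above 45% if 1.5-fold the growth effect; inactive = the rest, general growth blockers included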;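 note: wells of about 50 µL received 100 nL stock; 0% = vehicle wells and 100% = reference inhibitor wells; whole bacteria with a GFP reporter of the hypoxia response; strong numbers were not always called active; many hits fall short of the cut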
# Bead autofluor: flagged as autofluorescent in microsphere protease counterscreen; 360,000 tested, 3.1% active; fluorescence intensity (test concentration not listed); AID 624483; compound autofluorescence counterscreen, microsphere flow cytometry; active compounds read high;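 active = at least 3 SD above the mean of all compounds, about 16000 in these data; inconclusive = too few beads counted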;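 note: 100 nL of 1 mM stock went into each well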
# RN4220 kill: growth inhibition of S. aureus RN4220, primary screen, OD600. 16 h. 330,000 tested, 0.33% active. inhibition, % (no concentration beside the values);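 active = z-score of -3 or lower and OD600 up to 0.18 on both plates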;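 note: plate controls were untreated cells for no effect and reference antibiotic for full effect; stock transfer was 100 nL into about 80 µL; one replicate is shown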
# PrP 5UTR inh: inhibition of PrP 5' UTR reporter expression | cell-based PrP 5' UTR mRNA reporter, plate reader | inhibition, % (test concentration not listed) | 340,000 tested, 0.35% active | AID 488862, 2010;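 active = every replicate at 50% or more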;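 note: 0 = median of the neutral control wells; tested in H4 reporter cells; numbers are from one replicate; inactives centre near -14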
# Sa ugtP lethal: growth inhibition of ugtP-null S. aureus, primary screen, RN4220 ugtP deletion, OD600. growth inhibition, % (test concentration not listed). 330,000 tested, 0.54% active. AID 1259309, 2017. 16 h; some inactives read as strong as hits;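 active = z-score under -3 and OD600 up to 0.15 on both plates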;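 note: plate controls were untreated wells for no effect and antibiotic for full effect; wells of about 80 µL received 100 nL stock; the first replicate is given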
# BJeLR viability: MLPCN primary cell-based screen for lethality selective to Ras in HRASV12 cells | BJeLR (HRASV12) viability, CellTiter-Glo ATP luminescence, 48 h; reference of the scale not given here | inhibition, % (concentration not given with the values) | 300,000 tested, 0.17% active;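 active = replicate mean above 50%; inconclusive = above 50% but judged a plate artefact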;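 note: 50 nL library stock added to about 25 µL; numbers are from one replicate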
# Mtb hypoxia inh growth: recorded beside Mtb hypoxia inh, whose call it bears; growth inhibition, %; measured here: M. tuberculosis growth (absorbance);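 0% = vehicle and 100% = reference antibiotic; read after six days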
# The depositor's hits bear a star; ? = inconclusive; . = no result given. Not a hit list, and some 4% of all compounds hit somewhere here.
SMILES,Mtb hypoxia inh,Mtb hypoxia inh growth,Bead autofluor,RN4220 kill,PrP 5UTR inh,Sa ugtP lethal,BJeLR viability
COc1cc(OC)cc(C(=O)Nc2nnc(SCC(=O)NCC3CCCO3)s2)c1 (configuration not stated),7,15,5814,-2.6,-15,2,-9
COc1ccc(/C=C(\NC(=O)c2ccc(OC)cc2)C(=O)Nc2ccc(C(=O)O)cc2)cc1,10,7,3829,0.2,-7,6,1
CN(NC1CC(=O)N(c2ccccc2)C1=O)c1ccccc1 (configuration not stated),7,12,2688,0.5,-13,3,.
CCn1c(/C=C/Nc2ccccc2)[n+](CC)c2cc(Cl)c(Cl)cc21,5,4,9444,-0.9,-9,-12,13
CN1CCN(C(=O)C2=C[C@@H](c3coc4ccccc4c3=O)C[C@@H](OCc3ccc(CO)cc3)O2)CC1,4,2,3687,-11,-12,-5,16
C/C=C/c1ccc(OCCCCOc2ccccc2C(C)=O)c(OC)c1,0,2,2442,8.5,-19,-5,-6
NNC(=O)CSCc1nc(-c2ccc(Cl)cc2)cs1,11,-3,.,0.2,.,3,-7
CC(C)(C)OC(=O)NCc1ccc(NC(=O)c2nc[nH]c2C(=O)NCCCCCCNC(=O)c2[nH]cnc2C(=O)Nc2ccc(CNC(=O)OC(C)(C)C)cc2)cc1,0,-1,4302,1.7,-2,9,.
O=C(Cc1ccccc1)N1CCN(Cc2ccccn2)CC1,-1,-2,4609,0.6,-7,-3,0
CCOC(=O)c1ccc(NC(=O)COc2ccc(S(=O)(=O)NC(C)(C)C)cc2)cc1,.,.,4545,-0.3,0,-3,-6
COc1ccc(CCNc2nc(C)c(C(C)=O)s2)cc1OC,9,5,5680,6.3,-19,8,4
Cc1c(C(=O)N2CCCC2)c(S(=O)(=O)N2CCCCC2)c(C)n1C,8,-4,4267,7.1,-6,16,4
Nc1c(Cl)cc(-c2csc(N3CCCC3c3nc4cc(Cl)c(N5CCCCC5)cc4n3CCCO)n2)cc1Cl (configuration not stated),-1,5,3992,-2.9,-14,-2,-8
CC(C)(C)OC(=O)N1CCC(c2c(C(=O)NCC3CCN(C4CCCC4)C3)cnn2-c2ccccc2Cl)CC1 (configuration not stated),2,5,6056,4.3,-23,-2,0
O=C(NCc1ccco1)C(c1ccccc1)N(CC1CCCO1)C(=O)Cn1nnc2ccccc21 (configuration not stated),.,.,2226,0.2,11,2,-4
CCn1c(C)csc1=NC(=O)c1ccccc1,.,.,4309,7.7,-24,-7,-5
COc1cccc(NS(=O)(=O)c2ccc3[nH]cc(C(=O)N(C)Cc4ccco4)c(=O)c3c2)c1,12,15,13156,3.9,-29,9,1
Nc1cc(=O)nc(SCC(=O)N2CCN(c3ccccc3)CC2)n1-c1ccccc1,-2,0,5355,-1.8,1,1,-25
O=C1c2ccccc2C(=O)N1c1nccs1,11,7,2928,-0.1,-7,3,.
COc1ccc(S(=O)(=O)N2CCC(C(=O)N[C@@H](C)C(=O)NCc3cccc(OC)c3)CC2)cc1,10,1,5171,1.1,-20,1,-1

# Three compounds already listed, sorted by molar mass, smallest number first.
SMILES,Mtb hypoxia inh,Mtb hypoxia inh growth,Bead autofluor,RN4220 kill,PrP 5UTR inh,Sa ugtP lethal,BJeLR viability
CCn1c(C)csc1=NC(=O)c1ccccc1,.,.,4309,7.7,-24,-7,-5
Nc1cc(=O)nc(SCC(=O)N2CCN(c3ccccc3)CC2)n1-c1ccccc1,-2,0,5355,-1.8,1,1,-25
COc1cc(OC)cc(C(=O)Nc2nnc(SCC(=O)NCC3CCCO3)s2)c1 (configuration not stated),7,15,5814,-2.6,-15,2,-9

# Next part
SMILES,Mtb hypoxia inh,Mtb hypoxia inh growth,Bead autofluor,RN4220 kill,PrP 5UTR inh,Sa ugtP lethal,BJeLR viability
Cc1ccc(S(=O)(=O)N2CCOCC2)cc1C(=O)N1CCCC1,-12,-8,4162,1.9,12,10,10
COC(=O)c1cccc(N(C(=O)CNC(=O)c2cccs2)C(C(=O)NCC2CCCO2)c2ccc(OC)c(OC)c2)c1 (configuration not stated),-3,6,3792,3.8,-21,5,-8
CC(C)CCN1CC(O)=C(c2nc(-c3ccc(Cl)cc3)cs2)C1=N,.,.,4517,-13,-28,-2,-1
COc1cc(CN2CCN(Cc3ccc([N+](=O)[O-])cc3)CC2)c([N+](=O)[O-])cc1OC,5,1,2343,-0.6,-5,8,2
CN1/C(=C\C=[N+](C)c2ccccc2)C(C)(C)c2ccccc21,19,13,4445,2.6,-25,6,16
O=C(N/N=C/c1ccccn1)c1ccncc1,.,.,4466,.,-25,.,-3
Cc1cc(O)c(C=Nc2ccc(N3CCOCC3)cc2)c(C)c1Cl,8,3,3871,5.8,0,4,-18
C=CCn1c(SCC(=O)Nc2ccc(OC)cc2)nc2ccccc2c1=O,7,15,3432,-1.1,-1,6,1
CC(c1ccccc1)n1c(NCCCn2ccnc2)nc2c1c(=O)[nH]c(=O)n2C (configuration not stated),-10,-3,.,1.8,.,1,9
Cc1ccnc(NC(=O)c2ccc3c(c2)OCO3)c1,-8,13,3516,-0.5,-9,1,25
COc1ccc(CCNc2c(C)c(C)nc3ncnn23)cc1,11,5,11042,5.9,.,17,22
CC(C)(C)c1ccc(C(=O)NCCCNC(=O)c2ccco2)cc1,6,3,4545,-1.1,-7,0,10
COc1cccc(NC(=O)Nc2cc(Cl)ccc2C)c1,0,0,2029,-6.4,2,-24,2
COc1ccc(S(=O)(=O)N/N=C(/C)c2ccc(Cl)cc2)cc1,.,.,8050,.,-17,.,6
Cc1ccc(C(=O)N(Nc2nc3ccccc3s2)C(=O)c2ccc(C)cc2)cc1,6,2,2556,2.1,-15,1,1
O=C(Cc1ccc(Br)cc1)N1CCCC1,.,.,4303,4.6,-74,15,-12
CCCCNCCOCCOc1ccc(Cl)cc1Br,18,-1,2556,-0.3,-8,0,12
O=c1c2ccc(Cl)cc2nc(-c2ccc([N+](=O)[O-])cc2)n1O,.,.,2131,.,-5,.,6
CCOC(=O)c1c(NC(=O)CN2C(=O)C(=O)N(C(C)C)C2=O)sc(C)c1CC,-6,3,?,2.8,11,-6,.
CCc1ccc(NC(=O)c2cc(-c3ccc4c(c3)OCO4)on2)cc1,0,0,3201,1.9,-18,0,-16
COc1ccccc1NC(=S)NC1CCCCCC1,-10,0,9332,5.1,-15,13,3
CCOC(=O)c1c(NC(=O)CSc2nncn2C)sc(C)c1C,1,-1,10606,2.5,-11,5,2
COc1cc2c(cc1OC)CN(C(=O)Cc1ccccc1)CC2,-1,-4,3650,6.0,-14,1,-2
O=C(c1ccc(-c2ccccc2)c(F)c1)C1CCCN(CCO)C1 (configuration not stated),7,8,3222,-0.1,-27,48,-4
Cc1c(C(=O)N(Cc2ccc(Cl)cc2)C2CCS(=O)(=O)C2)oc2ccccc12 (configuration not stated),11,-3,4917,-2.4,-5,-6,17
Nc1nnnn1/N=C/c1cc(Cl)cc(Cl)c1OCc1ccc(Cl)cc1Cl,.,.,2294,.,-19,.,3
COC(=O)c1ccc(Cn2nc(C)cc2C)cc1,.,.,3792,3.3,-24,2,10
O=C(c1cccc(S(=O)(=O)N2CCCCC2)c1)N1CCN(c2ccccc2)CC1,10,-3,5868,1.8,-2,6,4
CCCn1c(N)c(N(CCOC)C(=O)c2cc(S(=O)(=O)N3CCCCCC3)ccc2OC)c(=O)[nH]c1=O,.,.,4432,.,9,.,-1
CCN(CC)CCCNC(=O)CNC(=O)c1nn(-c2ccc(OC)cc2)c(=O)c2ccccc12,-4,-2,4358,6.5,-32,3,2
COC(=O)c1sccc1NC(=O)c1ccccc1C(=O)O,-2,-3,4755,4.3,-14,5,5
O=C(Nc1ccccc1)c1ccc(S(=O)(=O)NCC2CCCO2)cc1 (configuration not stated),2,10,5194,0.0,-10,-1,0
COC(=O)c1cc2occc2n1CC(=O)Nc1ccc(C)cc1C,17,7,8097,4.6,-5,5,2
CCCc1cc(C(=O)Nc2ccc(C(C)=O)cc2)no1,-6,12,6545,-11,-20,-3,-2
CSc1ncccc1C(=O)NC1CCCc2c1cnn2-c1ccc(C)c(C)c1 (configuration not stated),13,1,4627,2.9,-17,6,2
COc1ccccc1C1CCN(C(=O)c2cnn(-c3ccccc3)c2C)CC1,3,8,3964,5.3,0,6,3
Cc1ccc(NS(=O)(=O)c2ccc(Cl)c(N=Nc3c(O)[nH]c(=O)[nH]c3=O)c2)cc1Cl,6,6,3692,8.0,-22,1,.
O=S(=O)(c1ccccc1)c1nc(-c2ccco2)oc1NCCCn1ccnc1,.,.,2634,-0.7,-2,14,0
CSc1oc(-c2ccccc2)nc1C(N)=O,1,9,6509,5.1,-20,-10,-1
Cc1ccc(C(=O)Nc2cccc(C(=O)N3CCOCC3)c2)cc1,17,8,14103,3.2,-49,-6,-1
O=C(NC1CC1)c1cccc(NC(=O)c2cc(S(=O)(=O)N3CCOCC3)ccc2Cl)c1,-2,-3,4415,1.5,-21,6,.
CCN(CC)C(=O)CCS(=O)(=O)c1cccc2nonc12,15,6,3372,3.9,-8,4,.
CCN(C(=O)CSc1nccc(=O)[nH]1)C1CCCCC1,25,3,2944,3.1,-16,10,.
CN1CCCC(OC(=O)c2cc(F)c(F)c(F)c2F)C1 (configuration not stated),16,0,3223,1.7,5,4,1
O=C(O)c1cc([N+](=O)[O-])ccc1C(=O)Nc1ccccc1,0,5,3168,0.1,-5,6,-8
O=C(CN(Cc1ccc(F)cc1)C(=O)CCC(=O)Nc1nccs1)NCc1ccccc1,9,5,5161,2.2,-20,6,-7
Cc1ccccc1OCc1nc2ccccc2n1C,-13,-13,3076,4.1,-74,3,-13
Cc1sc(NC(=O)c2ccccc2)c(C(=O)NC(C)C)c1C,4,11,10334,3.4,-15,-5,-1
O=C(Nc1cccc(C(F)(F)F)c1)N1CCC(c2nc(-c3ccc(F)cc3)no2)CC1,5,0,20249*,4.0,-5,-37,-12
CCOc1ccc(C2C(C(=O)c3ccco3)=C(O)C(=O)N2CCCn2ccnc2)cc1OCC (configuration not stated),3,6,5325,3.4,0,1,-8
Cc1nc2sc3c(=O)[nH]nnc3c2c(C)c1Br,2,-1,3039,40,-13,21,-1
CC(CC(=O)NC(C)(C)C)=NNC(N)=S,-6,8,.,3.1,.,4,.
COc1ccc(OC(=O)c2ccc3nsnc3c2)cc1,.,.,2423,-3.5,-8,7,0
CC(C)C12CN3CC(C(C)C)(CN(C1)C3c1ccc([N+](=O)[O-])o1)C2=O (configuration not stated),11,4,4782,6.8,-11,7,1
CC(=O)NCCn1c(SCC(=O)NCCC2=CCCCC2)nc2ccccc2c1=O,9,12,24653*,3.5,-18,1,3
O=C1C=C(c2ccc3[nH]ccc3c2)CC(c2ccc(F)cc2)C1 (configuration not stated),-3,3,.,-7.2,.,-15,.
COc1ccc(S(=O)(=O)N/N=c2\oc3c(OC)cccc3cc2S(=O)(=O)c2ccc(C)cc2)cc1OC,.,.,4997,.,-9,.,-4
O=C(Cc1ccc(Br)cc1)N1CCN(c2ccccc2)CC1,.,.,4832,0.6,-22,6,1

# Fetched by structure from above:
SMILES,Mtb hypoxia inh,Mtb hypoxia inh growth,Bead autofluor,RN4220 kill,PrP 5UTR inh,Sa ugtP lethal,BJeLR viability
O=C(Nc1cccc(C(F)(F)F)c1)N1CCC(c2nc(-c3ccc(F)cc3)no2)CC1,5,0,20249*,4.0,-5,-37,-12
O=C(CN(Cc1ccc(F)cc1)C(=O)CCC(=O)Nc1nccs1)NCc1ccccc1,9,5,5161,2.2,-20,6,-7
CCN(CC)C(=O)CCS(=O)(=O)c1cccc2nonc12,15,6,3372,3.9,-8,4,.
Cc1nc2sc3c(=O)[nH]nnc3c2c(C)c1Br,2,-1,3039,40,-13,21,-1
O=C(NC1CC1)c1cccc(NC(=O)c2cc(S(=O)(=O)N3CCOCC3)ccc2Cl)c1,-2,-3,4415,1.5,-21,6,.
O=C1C=C(c2ccc3[nH]ccc3c2)CC(c2ccc(F)cc2)C1 (configuration not stated),-3,3,.,-7.2,.,-15,.
CC(CC(=O)NC(C)(C)C)=NNC(N)=S,-6,8,.,3.1,.,4,.
